HCMV NEC inh: disrupts HCMV UL50-UL53 complex binding; HTRF UL50-UL53 interaction, normalized percent inhibition; inhibition, % (no concentration beside the values); hit rate 0.15% among 190,000; AID 1918969;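 active = both replicates at 50% or more, plus weaker picks with an unusually low signal ratio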;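 note: stock transfer was 100 nL into about 20 µL; 0% = negative control wells and 100% = wells with untagged competitor protein; inactives centre near -12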
GIV Gai3 FP: GIV-Galpha-i interaction inhibition. P08753. Galpha-i3/FITC-GIV peptide fluorescence polarization, 90 min; active compounds read low; scaled: aluminum fluoride 0%, vehicle 100%. percent of control (FP), % (no concentration beside the values). hit rate 0.42% among 210,000. AID 1224905;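 active = replicate mean at 85% of control or lower, very high polarization wells dropped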;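 note: wells of about 15 µL received 100 nL stock; the first replicate is given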
Target sequence (P08753 whole entry, looked up): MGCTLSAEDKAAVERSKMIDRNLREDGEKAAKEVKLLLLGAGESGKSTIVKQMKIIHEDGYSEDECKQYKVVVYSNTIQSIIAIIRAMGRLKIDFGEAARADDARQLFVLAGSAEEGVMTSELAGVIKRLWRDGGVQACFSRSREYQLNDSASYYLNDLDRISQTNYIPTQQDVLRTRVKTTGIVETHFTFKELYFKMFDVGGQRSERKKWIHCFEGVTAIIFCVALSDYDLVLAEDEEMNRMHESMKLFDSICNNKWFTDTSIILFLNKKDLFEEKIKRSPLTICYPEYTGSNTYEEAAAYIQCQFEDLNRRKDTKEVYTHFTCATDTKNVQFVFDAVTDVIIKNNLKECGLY
Sa growth 42C: inhibitors of Staphylococcus aureus growth at 42 °C | S. aureus RN4220 growth, OD600, 20 h; active compounds read low | relative growth, % (concentration not given with the values) | hit rate 0.53% among 170,000 | AID 720641;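 active = growth at 42 °C up to 50% and 20 or more points under that at 30 °C, or under 10% at both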;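 note: 300 nL library stock went into each well; scaled to the means of positive and negative controls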
Sa growth 42C second temp: second read-out of Sa growth 42C, no call of its own (marks repeat the call); relative growth, %; measured here: growth at 30 °C;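 optical density after 20 h as mean of two plates; 100% = untreated growth and lower means inhibition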
Numbers without * were called inactive; · = no result given; & = joins results of further samples.

Sample of the layout (6 entries):
SMILES | HCMV NEC inh | GIV Gai3 FP | Sa growth 42C | Sa growth 42C second temp
Cc1sc2nc(C3(C#N)Cc4ccccc4N4CCCC43)[nH]c(=O)c2c1C (stereo unspecified) | -44 | · | 79 | 68
CCOc1c(C)cnc2c1c(=O)n(CC(=O)Nc1ccc3c(c1)OCCO3)c(=O)n2C | 14 | 101 | · | ·
Cc1ccc(-c2csc(=NC(C)(C)C)n2-c2c(C)n(C)n(-c3ccccc3)c2=O)cc1 | -23 | 104 | 86 | 74
CCCn1c(O)c(N=O)c2ccccc21 | -76 | · | 90 | 89
CC(CCc1ccc(O)cc1)NCC(O)c1ccc(O)cc1 (stereo unspecified) | -25&-59 | 109 | 89 | 85
O=C(/C=C/c1ccccc1)C1=C(O)C(=O)N(CCO)C1c1ccc(F)cc1 (stereo unspecified) | -77 | 94 | 97 | 74

Results, repeating the preview:
SMILES | HCMV NEC inh | GIV Gai3 FP | Sa growth 42C | Sa growth 42C second temp
Cc1sc2nc(C3(C#N)Cc4ccccc4N4CCCC43)[nH]c(=O)c2c1C (stereo unspecified) | -44 | · | 79 | 68
CCOc1c(C)cnc2c1c(=O)n(CC(=O)Nc1ccc3c(c1)OCCO3)c(=O)n2C | 14 | 101 | · | ·
Cc1ccc(-c2csc(=NC(C)(C)C)n2-c2c(C)n(C)n(-c3ccccc3)c2=O)cc1 | -23 | 104 | 86 | 74
CCCn1c(O)c(N=O)c2ccccc21 | -76 | · | 90 | 89
CC(CCc1ccc(O)cc1)NCC(O)c1ccc(O)cc1 (stereo unspecified) | -25&-59 | 109 | 89 | 85
O=C(/C=C/c1ccccc1)C1=C(O)C(=O)N(CCO)C1c1ccc(F)cc1 (stereo unspecified) | -77 | 94 | 97 | 74
CCN(CC)c1ccc(NC(=O)CSc2nc(C)cc(=O)[nH]2)cc1 | -10 | 106 | 103 | 93
CC(C)C1C(C#N)=C(N)OC2=C1C(=O)CCC2 (stereo unspecified) | 0 | 101 | 95 | 110
COc1ccccc1CNS(=O)(=O)c1ccc2c(c1)CC(C)N2C(=O)C1CCC1 (stereo unspecified) | · | 106 | 94 | 88
COc1cc(C2C3=C(CC(C)(C)CC3=O)OC3=C2C(=O)CC(C)(C)C3)cc(Br)c1OC | -22 | 96 | · | ·
O=C(NCc1csc2ccccc12)C1CC1 | -8 | 100 | 106 | 84
CCCc1nnc2sc(COc3ccc(C)cc3)nn12 | -12 | 107 | · | ·
COc1cccc(NC(=O)C(=O)NCC(c2ccc3c(c2)OCO3)N2CCN(C)CC2)c1 (stereo unspecified) | · | 104 | 125 | 92
CC(=O)N1CCSc2cc(S(=O)(=O)NCc3ccccc3)ccc21 | · | 106 | 87 | 82
O=C(C1CCN(c2ccccc2)C1=O)N1CCC(N2CCCCC2)CC1 (stereo unspecified) | -21 | 104 | · | ·
c1ccc(N=C(c2cccs2)N2CCOCC2)cc1 | -6 | 104 | 100 | 109
O=c1c(NCCc2ccc(Cl)cc2)nccn1-c1ccc2c(c1)OCO2 | -8 | 100 | · | ·
O=C(c1ncn[nH]1)N1CCN(c2nc(-c3ccccc3)cs2)CC1 | -9 | 106 | 113 | 94
Cn1c(SCc2cccnc2)ncc(C(=O)Nc2ccc(F)cc2)c1=O | -24 | 101 | 85 | 79
CCCn1cnc2c(cnn2-c2ccc(Cl)cc2)c1=O | 16 | 109 | 84 | 92

A draw from above in order of heavy-atom count, ascending.
SMILES | HCMV NEC inh | GIV Gai3 FP | Sa growth 42C | Sa growth 42C second temp
CC(=O)N1CCSc2cc(S(=O)(=O)NCc3ccccc3)ccc21 | · | 106 | 87 | 82
Cn1c(SCc2cccnc2)ncc(C(=O)Nc2ccc(F)cc2)c1=O | -24 | 101 | 85 | 79
O=C(/C=C/c1ccccc1)C1=C(O)C(=O)N(CCO)C1c1ccc(F)cc1 (stereo unspecified) | -77 | 94 | 97 | 74

Compound profiles (already shown):
Listed for CCN(CC)c1ccc(NC(=O)CSc2nc(C)cc(=O)[nH]2)cc1 : HCMV NEC inh = -10; GIV Gai3 FP = 106; Sa growth 42C = 103; Sa growth 42C second temp = 93
Listed for CC(C)C1C(C#N)=C(N)OC2=C1C(=O)CCC2 (stereo unspecified) : HCMV NEC inh = 0; GIV Gai3 FP = 101; Sa growth 42C = 95; Sa growth 42C second temp = 110
Listed for CCCn1c(O)c(N=O)c2ccccc21 : HCMV NEC inh = -76; GIV Gai3 FP = ·; Sa growth 42C = 90; Sa growth 42C second temp = 89

More records.
SMILES | HCMV NEC inh | GIV Gai3 FP | Sa growth 42C | Sa growth 42C second temp
CCSc1nc2c(c(=O)n1C)C1(CCCC1)Cc1ccccc1-2 | -1 | 107 | · | ·
COc1ccccc1-c1cc(N)n(CCC#N)n1 | · | 105 | 102 | 95
CC(C)=C(NC(=O)c1ccccc1)C(=O)NN=C1CCN(Cc2ccccc2)CC1 | 14 | 109 | 97 | 99
CC(C)/C=C1\CC/C(=C\c2ccncc2)C1=O | 13 | 94 | 81 | 83
C=CCn1cc(/C=C2/SC(=O)N(CC(=O)OC)C2=O)c2ccccc21 | · | 100 | 82 | 83
Cc1ccc(OCC(=O)NCC2(N3CCN(C)CC3)CCCCC2)cc1C | 2 | 101 | 114 | 87
CSc1ccc(OCOc2ccc(SC)cc2)cc1 | -16 | 105 | 96 | 82
Cc1ccc(NCc2nnc3n2CCCCC3)cc1Cl | · | 101 | 104 | 102
COc1cc2nc(SCC(N)=O)n3nc(CCn4c(C)nc5ccccc54)nc3c2cc1OC | · | 105 | 99 | 87
O=C(NCc1ccc2c(c1)OCO2)C12CC3CC(CC(C3)C1)C2 | -1 | · | 84 | 92
CCN(CC)Cn1c(=S)oc2ccccc21 | · | 96 | 107 | 92
Cn1cccc1C(=O)NC(=O)CSc1nc2ncc(Cl)cc2[nH]1 | -26 | · | 83 | 84
CCN(CC)CCOC(=O)c1ccc(NC(=O)c2cc3c(s2)-c2ccccc2OC3)cc1 | -55 | 104 | 42 | -1
CCC(C)NC(=O)c1ccc(CN2C(=O)C(C)=C(c3ccc(C)c(C)c3)S2(=O)=O)cc1 (stereo unspecified) | 0 | 102 | · | ·
CC(=O)c1ccc(N2CCN(C(=O)Nc3cccc(F)c3)CC2)cc1 | 7 | 100 | 106 | 80
NS(=O)(=O)c1ccc(N2CCOCC2)c(C(=O)O)c1 | 4 | · | 102 | 97
Cc1nc(C(F)(F)F)ccc1NC(=O)c1ccc(C(F)(F)F)cc1 | · | 104 | 120 | 92
Cc1ccc(-c2ccc(=O)n(CC(=O)Nc3ccc(F)c(Cl)c3)n2)cc1C | -25 | 99 | 104 | 87
O=C(NCc1ccc(F)cc1)C1CCN(C(=O)c2cnn(-c3ccccc3)c2-n2cccc2)CC1 | -26 | 100 | 91 | 84
CCCCNc1ncc2c(n1)CC(c1ccccc1)CC2=O (stereo unspecified) | -5 | 104 | 99 | 97
Cc1c(C(C)C)c(=O)n(-c2ccc(S(=O)(=O)NC(C)C)cc2)n1C | -7 | 96 | 104 | 89
O=S(=O)(c1ccc2c(c1)CCCC2)N1CCN(c2nc3ccccc3n3cccc23)CC1 | -26 | 102 | · | ·
CC(=O)Nc1ccc(C)cc1-c1nc2ccccc2n(C(C)C(=O)Nc2ccccc2C)c1=O (stereo unspecified) | -28 | 103 | · | ·
CCN(C(=O)CSc1nnc(C)c(=O)[nH]1)C1CCCCC1 | 4 | · | 111 | 96
CCc1ccc(C2C3=C(CC(c4ccccc4)CC3=O)Nc3onc(C)c32)cc1 (stereo unspecified) | -12 | 101 | · | ·
Cc1ccc(NS(=O)(=O)c2cc(-c3cnc(C4CC4)o3)ccc2C)cc1Cl | · | 113 | 124 | 109
Cc1ccccc1CN(C)C(C)C(=O)NCc1ccccc1 (stereo unspecified) | -15 | · | 96 | 85
CCOC(=O)c1cc(-c2ccccc2)n(CC(=O)N2CCc3ccccc32)c1C | · | 103 | 67 | 87
O=C1CCCc2cc(S(=O)(=O)N3CCCC(CN4CCc5ccccc5C4)C3)ccc2N1 (stereo unspecified) | -17 | 107 | · | ·
COc1ccc(C(=O)CSc2nc3nc[nH]c3c(=O)[nH]2)cc1 | -13 | 105 | · | ·
COCCn1c(C)cc(O)c(C(c2ccccc2)N2CCN(C)CC2)c1=O (stereo unspecified) | · | 99 | 85 | 93
O=C(OCc1ccccc1)Sc1nnc(-c2ccc(Br)cc2)o1 | -5 | 100 | 96 | 93
CCCOc1nnc(-c2ccc(Cl)cc2)c2ccccc12 | 6 | 107 | · | ·
Cc1nn(C)c(C)c1NC(=O)COC(=O)c1n[nH]c(=O)c2ccccc12 | -40 | · | 98 | 81
O=C(Cn1c(SCc2cccc(F)c2)nc2ccncc21)N1CCCCCC1 | 6 | 100 | 120 | 90
CN(Cc1ccccc1)C(=S)NC(=O)c1ccccc1 | · | 102 | 87 | 51
Cc1cc(NC(=O)C2CCN(S(=O)(=O)c3ccc(Br)s3)CC2)ccc1Br | -22 | 101 | 93 | 85
Cc1ccc(-c2nc(SCC(=O)NCc3ccco3)c(-c3ccc(F)cc3)[nH]2)cc1 | -33 | 98 | 88 | 86
CN(Cc1ccccc1)C(=O)Cn1ncn2cccc2c1=O | · | 102 | 90 | 93
Cc1ccc(C)n1Cc1ccc(C(=O)O)cc1 | 70* | 33* | 79 | 70
Cc1cccc(NS(=O)(=O)c2ccc3oc(=O)c4ncn(C)c4c3c2)c1C | · | 101 | 92 | 92
Fc1ccc(OCc2nnc3sc(-c4cccnc4)nn23)cc1 | 10 | 98 | · | ·
CCc1ccc(NC(=O)c2ccc3c(c2)nnn3CC)cc1 | · | 106 | 91 | 95
Cc1ccc(NC(=O)C2=CCN(Cc3cccc(C)c3)CC2)cc1 | -8 | 103 | · | ·
O=C(COC(=O)Cc1ccsc1)NC(c1ccccc1)c1ccccc1 | 18 | · | 82 | 101
CCCC(=O)Oc1ccc2c(=O)c(-c3ccc(OC)c(OC)c3)c(C(F)(F)F)oc2c1 | -19 | 102 | · | ·
O=C(c1cccc2c1NC(c1ccc([N+](=O)[O-])cc1)C1CC=CC21)N1CCCC1 (stereo unspecified) | -43 | 113 | · | ·
CCCCN(C#N)c1nc(N2CCOCC2)nc(N2CCOCC2)n1 | 1 | 105 | 91 | 92
O=C(COC(=O)C1CCN(S(=O)(=O)c2ccccc2)CC1)Nc1ccccc1C(=O)NC1CC1 | 18 | · | 112 | 104
Cc1ccc2c(c1)NC(C(=O)N1CCN(c3cc(C)ccc3C)CC1)NS2(=O)=O (stereo unspecified) | -5 | 110 | · | ·
Cc1ccc(NC(=O)CC2SC(=NC(c3ccc(O)cc3)c3c(O)[nH]c(=O)[nH]c3=O)NC2=O)cc1 (stereo unspecified) | 9 | 103 | 96 | 97
Cc1ccccc1-c1noc(-c2ccc(NCC3CCCO3)c([N+](=O)[O-])c2)n1 (stereo unspecified) | -30 | 104 | 95 | 83
CCCCn1nnc(NCc2ccc(-c3cccc(Cl)c3C)o2)n1 | -4 | 110 | · | ·
CC1CCN(C(=O)c2cc(C(C)C)on2)CC1 | -20 | 102 | · | ·
CCSc1nn(CC(=O)c2ccc(F)cc2)c(=N)s1 | -3 | · | 92 | 99
O=C(CSCc1cnn(-c2ccccc2)c1-n1cccc1)NCc1ccccc1Br | 9 | 102 | 97 | 84
O=C(NCC1COc2ccccc2O1)C1CCCCC1 (stereo unspecified) | 36 | 98 | 90 | 87
CCC(C)(C)NC(=O)CCc1ccc(S(=O)(=O)N2CCOCC2)cc1 | -19 | · | 100 | 95
N=c1ccccn1CC(O)COc1ccccc1 (stereo unspecified) | · | 105 | 115 | 96

Reprinted at random: two entries already listed
SMILES | HCMV NEC inh | GIV Gai3 FP | Sa growth 42C | Sa growth 42C second temp
O=C(NCC1COc2ccccc2O1)C1CCCCC1 (stereo unspecified) | 36 | 98 | 90 | 87
Cc1cccc(NS(=O)(=O)c2ccc3oc(=O)c4ncn(C)c4c3c2)c1C | · | 101 | 92 | 92
